High-throughput results deposited in PubChem by National Center for Advancing Translational Sciences (NCATS).
Methyltransferases: Primary Screen for Target Class Profiling of Small Molecule Inhibitors of Methyltransferases; purified enzyme, MTase-Glo SAH luminescence; hits give low values; calls only at 40 µM; hit rate 3.9% among 25,000; active = -50% or lower on at least one of six enzymes; inconclusive = the cases between; inactive = as a rule above -30% on all six;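 further: enzymes were COMT GAMT GNMT HNMT NNMT and PNMT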
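Each enzyme was reacted with SAM and its substrate, with compounds tested once at 40 uM; SAH formed was read by MTase-Glo luminescence.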
Calls only; i = inactive; ? = inconclusive; + = active, no number. On the % scale 0 is the no-effect control and ±100 the full control effect.

Start of the data: the first five records, ahead of the listing:
SMILES	Methyltransferases
CCc1nc(CN2CCC(N3CCCC(C(=O)NCc4ccccn4)C3)CC2)no1 (stereo unspecified)	i
COc1ncccc1-c1nc(-c2c(C)noc2C)cc2c1cc(C)n2CCN(C)C	i
c1csc(CNc2ncnc3ccc(-c4ccc5c(c4)OCO5)cc23)c1	?
C[C@@H](c1ccccc1)N(C)C(=O)c1cc(COc2cccc(F)c2)[nH]n1	i
CC(C)CCn1c(=O)c2ccc(C(=O)NC3CCCCC3)cc2n2c(=O)n(CC(=O)c3ccccc3)nc12	i

The whole of this part, from the first entry:
SMILES	Methyltransferases
CCc1nc(CN2CCC(N3CCCC(C(=O)NCc4ccccn4)C3)CC2)no1 (stereo unspecified)	i
COc1ncccc1-c1nc(-c2c(C)noc2C)cc2c1cc(C)n2CCN(C)C	i
c1csc(CNc2ncnc3ccc(-c4ccc5c(c4)OCO5)cc23)c1	?
C[C@@H](c1ccccc1)N(C)C(=O)c1cc(COc2cccc(F)c2)[nH]n1	i
CC(C)CCn1c(=O)c2ccc(C(=O)NC3CCCCC3)cc2n2c(=O)n(CC(=O)c3ccccc3)nc12	i
Cn1c(=O)c2c(ncn2CC(=O)N2CCC(Cc3nc(C4CCOCC4)no3)CC2)n(C)c1=O	i
CC(C)NC(=O)CN1C(=O)NC(c2ccc(Cl)cc2)C2=C1COC2=O (stereo unspecified)	i
CC1c2cccn2CCN1C(=O)Nc1ccc(F)cc1F (stereo unspecified)	i
COCCS(=O)(=O)c1ncc(CN(C)Cc2ccsc2)n1Cc1ccccc1	i
Cc1ccccc1CN1C(=O)c2cc3ccccc3n2CC1(C)C(=O)NCCC(C)C (stereo unspecified)	i
CCOC(=O)c1cc2n(n1)CC(C)(C(=O)NC1CCCCC1)N(Cc1ccc(Cl)cc1)C2=O (stereo unspecified)	i
O=C(NC1CCCC1)N1CCC(Cc2nncn2CC2CC2)CC1	i
CC1CCCC(NC(=O)C2(C)Cn3c(cc4occc43)C(=O)N2Cc2ccc(F)cc2)C1C (stereo unspecified)	i
O=C(c1ccc2ncccc2c1)N1CCC(c2nc(CCOCC3CCOCC3)no2)C1 (stereo unspecified)	i
CCOC(=O)c1ccc2c(c1)[C@@H]1C=CC[C@@H]1[C@H](c1ccc(C(=O)OC)cc1)N2	i
CN(C)C[C@@H]1CN(S(C)(=O)=O)C[C@H]1NC(=O)c1ccc2[nH]ccc2c1	i
CN1CCC2(CCC1=O)CN(C(=O)c1ccc(Cn3cccn3)o1)CCN2C (stereo unspecified)	i
CC(NC(=O)Cn1c(=O)oc2cc(S(=O)(=O)NCc3ccccc3)ccc21)c1ccccc1 (stereo unspecified)	i
COc1cc(OC)cc(-c2nc(-c3ccc(S(=O)(=O)N4CCC(C)CC4)cc3)no2)c1	i
CCCOc1ccc(CN2C(=O)c3c(C(=O)OC)ncn3CC2(C)C(=O)NCc2ccccc2)cc1 (stereo unspecified)	i
Cn1cnnc1-c1nn(C)c2c1CNCC2	i
CCC(C)NC(=O)c1ccc2c(=O)n(C(C)C)c3nn(Cc4ccc(F)cc4Cl)c(=O)n3c2c1 (stereo unspecified)	i
O=C(O)CCN(O)C(=O)CCCCCCCCC1CC1	?
CCCn1c(=O)c2ccc(C(=O)NC3CCCC3)cc2n2c(SCC(=O)NC3CCCCC3)nnc12	i
Cc1cc(C(=O)N2CC(F)(F)C[C@H]2c2nnc(C)o2)no1	i
CC(C)NC(=O)N1CCN(S(C)(=O)=O)[C@@H](C(=O)N[C@H](Cc2c[nH]c3ccccc23)C(N)=O)C1	i
C[C@H](NC(=O)/C(C#N)=C/c1ccc(O)c(O)c1)c1ccccc1	?
Cc1ccc(NC(=O)N2Cc3c(sc4c3CCCC4)-n3cccc3C2c2cccc(F)c2)cc1 (stereo unspecified)	i
CCOc1cccc(C2c3cccn3-c3sc4c(c3CN2C(=O)Nc2ccc(OC)cc2OC)CCCC4)c1 (stereo unspecified)	i
Cc1cc2c(cc3n2CC(C)(C(=O)NC2CCCCCCC2)N(Cc2cccc(F)c2)C3=O)o1 (stereo unspecified)	i
CCOC(=O)C1CCN(C(=O)CNS(=O)(=O)c2ccc3nc(C)sc3c2)CC1	i
CCCCS(=N)(=O)CC[C@H](N)C(=O)O (stereo partly specified)	i
COc1cc2ncnc(Nc3cccc(Cl)c3F)c2cc1OC(=O)N1CCN(C)C[C@H]1C	i
Cc1ccccc1Cn1nc2n(C)c(=O)c3ccc(C(=O)NC4CCCC4)cc3n2c1=O	i
CCN1CCCC1CNC(=O)c1cc(S(=O)(=O)CC)c(N)cc1OC (stereo unspecified)	i
CC1(C(=O)NC2CCCCC2)Cn2c(cc3occc32)C(=O)N1CCCN1CCCCC1 (stereo unspecified)	i
Nc1cc(C(=O)N2CCc3onc(-c4ccc(-c5ccccc5)cc4)c3C2)[nH]n1	i
COCCCN1C(=O)c2nc3ccccc3n2CC1(C)C(=O)NC1CCCCC1C (stereo unspecified)	i
CCCN1C(=O)c2ccc(-c3ccccc3)n2CC1(C)C(=O)NC1CCCCCCC1 (stereo unspecified)	i
c1cc(N[C@@H]2CCNC2)nc(-c2cnc3ccc(-c4cn[nH]c4)cn23)c1	+
Cc1ccc(C(=O)N2CCC(C(=O)N3CCCCCCNC(=O)CC3)CC2)s1	i
CCC(C(C)O)n1ncn(-c2ccc(N3CCN(c4ccc(OCC5COC(Cn6cncn6)(c6ccc(F)cc6F)C5)cc4)CC3)cc2)c1=O (stereo unspecified)	?
O=S(=O)(Nc1ccc(Cl)c(C(F)(F)F)c1)c1ccc2[nH]c3c(c2c1)CCCC3	i
Cc1cccc(NC(=O)N2CCn3c(C)ccc3C2C(C)C)c1 (stereo unspecified)	i
N#CCn1ccn2nc3c(c2c1=O)CCCC3	i
CNS(=O)(=O)c1ccccc1Nc1nc(Nc2ccc(N3CCN(C)CC3)cc2OC)ncc1Br	?
O=C(CCn1ccc2cc(S(=O)(=O)N3CCCC3)ccc21)NCc1ccccc1F	i
O=C(c1cn[nH]c1)N1CCC(c2nc(CCOCC3CC3)no2)C1 (stereo unspecified)	i
COCCN(C)Cc1ccc(CC2CCN(S(=O)(=O)c3ccccc3)CC2)cc1	i
CC1(C(=O)NC2CCCCC2)Cn2c(ccc2-c2ccco2)C(=O)N1CCc1ccco1 (stereo unspecified)	i
Cn1cc(C2=C(c3cn(CCCN)c4ccccc34)C(=O)NC2=O)c2ccccc21	?
CC(C(=O)O)c1ccc2c(c1)[nH]c1ccc(Cl)cc12 (stereo unspecified)	?
c1cc(-c2ccnc3nc(C4CCC4)nn23)ccn1	i
CC[C@H]1OC(=O)[C@H](C)[C@@H](O[C@H]2C[C@@](C)(OC)[C@@H](O)[C@H](C)O2)C(C)[C@@H](O[C@@H]2O[C@H](C)C[C@H](N(C)C)[C@H]2O)[C@](C)(O)C[C@@H](C)CN(C)[C@H](C)[C@@H](O)[C@]1(C)O (stereo partly specified)	i
O=C(O)CCc1cc2ccoc2cc1O[C@@H]1O[C@H](CO[C@@H]2OC[C@](O)(CO)[C@H]2O)[C@@H](O)[C@H](O)[C@H]1O	i
C/C=C(\C)C(=O)O[C@@H]1[C@@H](C)[C@]2(O)[C@@H]3C=C(C)C(=O)[C@H]3CC(CO)=C[C@H]2C2C(C)(C)[C@@]21OC(=O)C(C)CC (stereo partly specified)	i
O=C(/C=C/c1ccccc1)OC[C@]12O[C@H]1[C@@H](O)[C@@H]1C=CO[C@@H](O[C@@H]3O[C@H](CO)[C@@H](O)[C@H](O)[C@H]3O)[C@@H]12	+
O=C(CN1CCCCC1)N1CCCC(N2CCN(Cc3ccc4c(c3)OCO4)CC2)C1 (stereo unspecified)	i
Nc1ncnc2c1ncn2[C@@H]1O[C@H](CO)[C@@H](O)[C@H]1O	i
CCCn1c(=O)c2ccc(C(=O)NC3CCCCC3)cc2n2c(=O)n(CC(=O)NC(C)C)nc12	i

Continued, starting with the last two of the part before.
SMILES	Methyltransferases
Nc1ncnc2c1ncn2[C@@H]1O[C@H](CO)[C@@H](O)[C@H]1O	i
CCCn1c(=O)c2ccc(C(=O)NC3CCCCC3)cc2n2c(=O)n(CC(=O)NC(C)C)nc12	i
O=C1COCC2(CN(CCC(F)(F)F)C2)CN1Cc1cccc(OC(F)(F)F)c1	i
CC(C)Cn1c(=O)c2ccccc2n2c(SCC(=O)N3CCN(c4ccc(F)cc4)CC3)nnc12	i
CC(=O)Nc1c2n(c3ccccc13)CC(C)(C(=O)NC1CCCCCC1)N(C1CCC(C)CC1)C2=O (stereo unspecified)	i
Cc1cccc(CNC(=O)c2cc3n(n2)CC(C)(C(=O)NCc2ccccc2)N(C)C3=O)c1 (stereo unspecified)	i
CC(C)Cn1c(=O)c2ccccc2n2c(CCC(=O)NCCc3ccccc3)nnc12	i
Cc1noc(C)c1-c1cc2cc(C(C)C)oc2c(-c2ccc(CO)cc2)n1	i
Cn1ccnc1CNC[C@H]1Cn2cc(-c3ccccc3)nc2CO1	i
O=C(Cc1cccc(C(F)(F)F)c1)N[C@H]1CCOC[C@H]1C1CCOCC1	i
CC1CCN(S(=O)(=O)c2ccc3c(ccn3CCC(=O)NCc3ccccc3Cl)c2)CC1	i
COc1ccccc1N1CCN(S(=O)(=O)c2cc3c(cc2C)n(C)c(=O)n3C)CC1	i
CC1(C(=O)NC2CCCCCC2)Cc2ccccc2C(=O)N1Cc1ccccc1Cl (stereo unspecified)	i
O=C(NCC1(c2nc(-c3ccccc3)cs2)CCOCC1)c1cccc(-c2noc(C(F)(F)F)n2)c1	?

Of the compounds above, two have a cyano group.
SMILES	Methyltransferases
C[C@H](NC(=O)/C(C#N)=C/c1ccc(O)c(O)c1)c1ccccc1	?
N#CCn1ccn2nc3c(c2c1=O)CCCC3	i

Continuation:
SMILES	Methyltransferases
CCCn1c(=O)c2ccc(Cl)cc2n2c(=O)n(CC(=O)NCc3ccc(C)cc3)nc12	i
Cc1nc(NCCC2CCOC2)c2c(C)nn(C)c2n1 (stereo unspecified)	i
CCO/C([O-])=N/c1c[n+](N2CCOCC2)no1	i
CC(C)CCNC(=O)C1(C)Cn2c(cc3ccccc32)C(=O)N1Cc1ccc(F)cc1 (stereo unspecified)	i
CCC(Nc1ncnc2nc[nH]c12)c1nc2cccc(F)c2c(=O)n1-c1ccccc1 (stereo unspecified)	i
Cc1ccc(CN2CCCCCNC(=O)[C@@H]3CCC[C@@H]32)s1	i
O=C(CCc1nnc2ccc(NCCCN3CCCC3=O)nn12)NCc1ccccc1Cl	i
O=C(c1cccnc1)N1CCC2(CC1)C(=O)NN=C2c1cccnc1	i
O=C(CC[C@@H]1CNC(=O)[C@@H]2C[C@H](NC(=O)Nc3ccc(F)cc3F)CN12)NC1CC1	i
O=C(Cn1nc2n(Cc3ccc(F)cc3)c(=O)c3ccccc3n2c1=O)Nc1ccccc1F	i
CCCn1c(=O)c2cc(F)ccc2n2c(SCC(=O)NC3CCCC3)nnc12	i
Cc1ccc(NC(=O)N2CCC3(CC2)CC(Cc2nc(-c4ccccc4)no2)CCO3)cc1C (stereo unspecified)	i

As a short view, five of the compounds above.
SMILES	Methyltransferases
O=C(c1cccnc1)N1CCC2(CC1)C(=O)NN=C2c1cccnc1	i
O=C(CC[C@@H]1CNC(=O)[C@@H]2C[C@H](NC(=O)Nc3ccc(F)cc3F)CN12)NC1CC1	i
O=C(Cn1nc2n(Cc3ccc(F)cc3)c(=O)c3ccccc3n2c1=O)Nc1ccccc1F	i
CCCn1c(=O)c2cc(F)ccc2n2c(SCC(=O)NC3CCCC3)nnc12	i
Cc1ccc(NC(=O)N2CCC3(CC2)CC(Cc2nc(-c4ccccc4)no2)CCO3)cc1C (stereo unspecified)	i

(further entries)
SMILES	Methyltransferases
O=C(NCc1ccc2c(c1)OCO2)c1sc(=S)n2c1[nH]c(=O)c1cc3c(cc12)OCO3	i
COc1ccc(C(=O)N[C@H](Cc2ccccn2)C2CC(O)C2)cc1F (stereo partly specified)	i
COc1cccc2c1OCCCN(Cc1cn(-c3ccccc3)nn1)C2	i
O=C1C=CC2OC(c3ccccc3)C(O)C2O1 (stereo unspecified)	i
CC(C)Cn1c(=O)c2ccc(C(=O)NC(C)C)cc2n2c(=O)n(Cc3ccccc3Cl)nc12	i
COc1ccc(CN2Cc3[nH]cnc3C[C@H]2C(=O)N2CCC(Cc3ccccc3)CC2)cc1	i
CC(C)NC(=O)COc1cccc(-c2nc(Nc3ccc4[nH]ncc4c3)c3ccccc3n2)c1	i
COc1c2c(c(C)c3c1C(=O)OC3)OC1(C)CC(O)C34OC(OC)(OC3(C)C)C(O)CC4(C)C1C2 (stereo unspecified)	i
CC(C)CCNC(=O)C1(C)Cn2c(cc3ccccc32)C(=O)N1Cc1cccs1 (stereo unspecified)	i
COc1c2c(c(C)c3c1C(=O)OC3)OC1(C)CC(O)C34OC(OC)(CC(OC(C)=O)C3(C)C1C2)OC4(C)C (stereo unspecified)	i
O=c1c2ccccc2n2c(-c3ccc(F)cc3)nnc2n1Cc1ccc(F)cc1	i
CCc1cc2c(cc3n2CC(C)(C(=O)NC2CCCCC2)N(CCN2CCOCC2)C3=O)s1 (stereo unspecified)	i
Cc1nc(CC(=O)N2CCCC3(CCC(=O)N(CCC(C)C)C3)C2)cs1 (stereo unspecified)	i
COCCCN1C(=O)c2ccc(-c3ccco3)n2CC1(C)C(=O)NC1CCCCC1 (stereo unspecified)	i
Cc1nc(N2CCC(NC(=O)C3CCCCC3)CC2)cc(C(F)(F)F)n1	i
C/C=C/C=C/C=C/C(=O)O[C@@H]1C=C2COC(=O)[C@]2(O)[C@@]2(C)CCCC(C)(C)[C@H]12	?
CCCN1C(=O)c2c(C(=O)NCc3ccc(F)cc3)ncn2CC1(C)C(=O)NCc1ccc(C)cc1 (stereo unspecified)	i
CC1CCC(NC(=O)Cn2ccc3cc(S(=O)(=O)N4CCCC4)ccc32)CC1 (stereo unspecified)	i
CCCn1c(=O)c2ccc(C(=O)NCC(C)C)cc2n2c(=O)n(Cc3cccc(C)c3)nc12	i
O=C(c1cccc(OC2CN(C3CCCCCC3)C2)c1)N1CCCC1	i
Cc1cc2[nH]c(=O)[nH]c2cc1S(=O)(=O)NCc1ccc2c(c1)OCO2	i

These rows are one share of the data; the hit share may differ from the screen's.
